# Screening data deposited in PubChem BioAssay by National Center for Advancing Translational Sciences (NCATS).
# Cruzain inh Det: qHTS Assay for Promiscuous and Specific Inhibitors of Cruzain (with detergent). 200,000 compounds, 0.43% hits. purified cruzain, Z-FR-AMC fluorescence, 0.01% Triton. Potency, µM, for the others: max response, negative = inhibition, usual class: inhibitors. AID 1478, 2009. Cruzipain (Trypanosoma cruzi), P25779;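 also: plate controls were neutral wells for no effect and buffer without enzyme for full effect; nearly all actives have a fitted effect of over 40% in size; top concentration of the series not given in the record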
# Target sequence (P25779 123-467 limits assumed): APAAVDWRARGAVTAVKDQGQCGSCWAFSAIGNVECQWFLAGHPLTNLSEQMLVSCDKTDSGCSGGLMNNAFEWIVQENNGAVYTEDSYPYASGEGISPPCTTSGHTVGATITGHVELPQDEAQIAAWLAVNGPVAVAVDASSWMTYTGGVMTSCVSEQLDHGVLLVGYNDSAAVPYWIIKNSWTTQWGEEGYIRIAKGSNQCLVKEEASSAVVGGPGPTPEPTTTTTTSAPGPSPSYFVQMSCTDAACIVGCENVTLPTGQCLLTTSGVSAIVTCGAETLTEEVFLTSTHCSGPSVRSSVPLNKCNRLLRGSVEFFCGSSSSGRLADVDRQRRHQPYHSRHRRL
#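 Enzyme 1.5 nM, Z-FR-AMC 2 uM, NaOAc 100 mM pH 5.5, DTT 5 mM, Triton X-100 0.01%; 15 min RT compound preincubation; kinetic ex360/em450, 60 s delta.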
# SARS PLP yeast: qHTS of Yeast-based Assay for SARS-CoV PLP; S. cerevisiae expressing SARS-CoV PLpro, growth rescue; control for the full effect not named in the record; Potency, µM (top dose mostly 32.9 µM), for the others: at the top dose activity, positive = growth rescue; 330,000 compounds, 0.19% hits; active means well fitted rising curve with a large enough effect; inconclusive means small, poorly fitted or top-dose-only effect; inactive means no such curve, though single readings can be large or run the other way; also: 0% is about no effect; nearly all actives have a fitted effect of over 55% in size; growth read by luminescence after 48 h
# MARV entry inh: qHTS for inhibitors of binding or entry into cells for Marburg Virus; Marburg virus pseudotyped entry inhibition, cell reporter; control for the full effect not named in the record; about a third of the inactives were read at about 46 µM; 300,000 compounds, 1.8% hits; Potency, µM (series often up to 37.8 µM), for inactives: at the highest dose activity change, negative = inhibition, usual class: inhibitors; active = well fitted inhibition curve with a large enough effect; inconclusive = small, poorly fitted or top-dose-only effect, or effect the other way; inactive = flat fitted curve, though single readings scatter; tested in HEK293 cells; about a fifth of its hits are not listed in these tables; also: % is scaled to controls: 0 for no effect and ±100 for the full control effect; luciferase read-out
# LASV entry inh: qHTS for Inhibitors of binding or entry into cells for Lassa Virus; AID 540256, 2011; 300,000 compounds, 1.2% hits; Potency, µM (highest dose often 37.9 µM), for inactives: at the top dose activity change, negative = inhibition, hits mostly inhibitors; Lassa virus pseudotype entry inhibition, cell reporter; control for the full effect not named in the record; active means well fitted inhibition curve with a large enough effect; inconclusive means small, poorly fitted or top-dose-only effect, or effect the other way; inactive means flat fitted curve, though single readings scatter; tested in HEK293 cells; also: % is scaled to controls: 0 for no effect and ±100 for the full control effect; nearly all actives have a fitted effect of over 50% in size; luciferase read-out
# StopGo reporter: High Throughput Screening for Foot and Mouth Disease Virus Antivirals | 410,000 compounds, 1.2% hits | human cells with a luciferase reporter of 2A StopGo recoding; control for the full effect not named in the record | Potency, µM (titrated, usually from 57.9 µM), inactives show at the highest dose signal change, negative = less light | AID 1159524, 2015; active = well fitted falling curve with a large enough effect; inconclusive = small, poorly fitted or top-dose-only effect; inactive = no such curve, though single readings can be large or run the other way; tested in HEK293T cells; also: % is scaled to controls: 0 for no effect and ±100 for the full control effect; nearly all actives have a fitted effect of over 45% in size; luciferase light after 4 h
# NS1 inh: qHTS Assay for Inhibitors of Influenza NS1 Protein Function. S. cerevisiae slowed by influenza A NS1, growth recovery by OD600. Potency, µM (titrated, usually from 46.1 µM), without a hit: top-dose activity, positive = more growth. 270,000 compounds, 0.4% hits. AID 2326, 2010; active means well fitted rising curve with a large enough effect; inconclusive means small, poorly fitted or top-dose-only effect; inactive means no such curve, though single readings can be large or run the other way; also: nearly all actives have a fitted effect of over 50% in size
#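 Read-out: OD600 growth recovery of NS1-expressing budding yeast. Cells grown overnight at 30C in -URA glucose medium, washed, resuspended and diluted 1:100 in 2% galactose assay medium, pH 6.0. Same strain lacking NS1 served as positive control.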
# Cruzain noTriton: qHTS Assay for Promiscuous and Specific Inhibitors of Cruzain (without detergent); Cruzipain (Trypanosoma cruzi), P25779; purified cruzain, Z-FR-AMC fluorescence, no detergent; AID 1476, 2009; 200,000 compounds, 2.3% hits; Potency, µM, inactives show max response, negative = inhibition, hits mostly inhibitors;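 also: plate controls were enzyme without inhibitor for no effect and buffer without enzyme for full effect; nearly all actives have a fitted effect of over 40% in size; top concentration of the series not given in the record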
#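 Purified cruzain at 1.5 nM, pre-incubated 15 min with compound at room temperature in 100 mM sodium acetate pH 5.5, 5 mM DTT, 0.00005% Triton X-100. Reaction started with 2 uM Z-FR-AMC; AMC fluorescence increase over 60 s gives rate.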
# RE007 growth inh: qHTS Assay for Inhibitors of the HIV-1 protein Vpr; 360,000 compounds, 0.21% hits; AID 651644, 2012; Potency, µM (highest dose often 92.2 µM), for inactives: at the highest dose activity change, negative = less growth; S. pombe RE007 Vpr strain, BacTiter-Glo ATP luminescence, 24 h; control for the full effect not named in the record; active = well fitted falling curve with a large enough effect; inconclusive = small, poorly fitted or top-dose-only effect; inactive = no such curve, though single readings can be large or run the other way;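 also: % is scaled to controls: 0 for no effect and ±100 for the full control effect; nearly all actives have a fitted effect of over 50% in size; the assay follows cell death caused by Vpr and the record does not say whether a fall means rescue or toxicity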
#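 Fission yeast strain RE007, carrying one chromosomally integrated HIV-1 vpr copy, was seeded at OD 0.01 in PMG+AL medium with 23 nL pinned compound. After 24 h at 30 °C and 99% humidity, viability was read by BacTiter-Glo luminescence.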
# An asterisk follows results filed as active; ? = inconclusive; . = not tested or not shown; & = joins results of further samples; [ ] = another dose, or the depositor's remark. Unless noted, calls follow the shape of the dose curve; as a rule, active = well fitted curve in the direction sought with a large enough effect; inconclusive = small, poorly fitted or top-dose-only effect, or another doubt; inactive = no such curve, though single readings can be large; an effect the other way counts as inactive or inconclusive. Potency is read from the fitted curve at half-maximal effect. Random draw from the library (roughly 4.8% active in at least one column).
SMILES,Cruzain inh Det,SARS PLP yeast,MARV entry inh,LASV entry inh,StopGo reporter,NS1 inh,Cruzain noTriton,RE007 growth inh
COc1ccc(S(=O)(=O)NCc2ccco2)c2ccccc12,-3.4%,-4%,3%,15%,.,-10%,-6%,12%
O=C(NCc1ccco1)C(=O)NCC1OCCN1S(=O)(=O)c1ccc(Br)cc1 (stereo not drawn),.,0%,3%[46.1 µM],4%[46.1 µM],-8%,.,.,21%
CCOC(=O)C1CCCN(Cc2ccc(O)c(OC)c2)C1 (stereo not drawn),4.0%,-1%,12%,0%,-14%,-6%,-6%,-2%[3.69 µM]
COc1cccc(/C=C/C(=O)N2CCN(S(=O)(=O)c3ccccc3)CC2)c1OC,.,2%,.,.,-13%,-3%,.,-2%
CC(C)NC(=O)Cn1ncn2c(cc3cc(F)ccc32)c1=O,-0.1%,.,-14%[46.1 µM],.,13%,.,-7%,.
O=C(NCc1ccccn1)c1cccc(S(=O)(=O)Nc2ccc(F)cc2)c1,.,0%,-11%,2%,41%[activator],.,.,-4%
O=C(Cn1cnc2c(nnn2Cc2ccc(F)cc2)c1=O)NC1CCCC1,4.4%,6%,0%,-16%,16%,-1%,-1%,-6%
Cc1cc(N/N=C/c2cccc(Cl)c2)nc(-n2nc(C)cc2C)n1,.,1%,?,?,-9%,8%,.,-3%
Cc1cc(NC(=O)COC(=O)c2cccc(OCc3ccccc3)c2)no1,0.7%,-1%,3%,-19%,27%,8%,-15%,-7%
Cc1ccc(C(=O)NCCSCc2ccc(Cl)cc2Cl)cc1[N+](=O)[O-],-3.5%,-44%,?,-31%[46.1 µM],2%,-67%,-4%,6%
Cc1cccc(OCC(=O)Nc2ccc3c4c(cccc24)CC3)c1C,-1.5%,-16%,2%,7%,1%,13%,?,-3%
NS(=O)(=O)c1ccc(CCNC(=O)CSCc2ccccc2)cc1,.,1%,0%,?,-9%,1%,.,3%
Cc1ccc(NC(=O)CN2C(=O)CN=C(c3ccccc3)c3ccccc32)cc1Cl,2.4%,.,.,?,5%,.,-5%,.
Cn1c(SCC(=O)Nc2ccc3nc(SCC(=O)NC4CC4)sc3c2)nnc1-c1ccccc1,1.8%,13%,?,-5%,?,5%,2%,7%
CCOC(=O)c1ccc(NC(=O)c2ccc3c(c2)NC(=O)c2ccccc2S3)cc1,-0.9%,.,-14%[46.1 µM],.,?,.,6%,.
O=C(O)C1=C[C@H](c2coc3ccccc3c2=O)C[C@H](OCc2ccc(CO)cc2)O1,.,0%,.,.,-11%,-1%,.,26%
Cc1ccc([N+](=O)[O-])cc1NC(=S)NC(=O)c1cccs1,2.9%,-16%,?,13%,-25%,9%,-5%,30%
COc1cc(CN2CCCC(C)C2)ccc1OCc1ccccc1 (stereo not drawn),.,4%,?,23%,12%,-28%,.,0%
CC(c1ccccc1F)n1cc(C(=O)NCc2ccncc2)nn1 (stereo not drawn),4.8%,0%,23%[46.1 µM],1%,14%,-4%,-8%,24%
CC1=NN(c2ccc(C(=O)O)c(N)c2)C(=O)C1,.,1%,12%[46.1 µM],7%,37%[activator],.,.,12%
O=C(CSc1ccc2ccccc2n1)Nc1ccc(N2CCOCC2)cc1,.,-4%,-29%[46.1 µM],0%,22%,.,.,-14%
Cc1cc(NC(=O)CCC(=O)N(Cc2ccccc2)C(C(=O)NC2CCCC2)c2ccc(C)o2)no1 (stereo not drawn),.,-2%,?,?,-18%,-3%,.,2%
CC(=O)Nc1ccc(NC(=O)c2cc(-c3cc(C)c(C)cc3O)n[nH]2)cc1,.,2%,-2%,0%,-6%,10%,.,2%
COc1cccc(NC(=O)CSc2nc(N)cc(N)n2)c1,-5.9%,-1%,15%,-2%,.,11%,-2%,-16%
CC(C)CN(CC(C)C)S(=O)(=O)N1CCC(C(=O)NCc2ccccn2)CC1,2.1%,-2%,0%,-6%,.,-10%,27%,-14%
SMILES,Cruzain inh Det,SARS PLP yeast,MARV entry inh,LASV entry inh,StopGo reporter,NS1 inh,Cruzain noTriton,RE007 growth inh
O=C(NNC1=NCCCCC1)Nc1cccc(Cl)c1,.,-1%,?,?,-12%,.,.,-6%
CC(=O)Nc1sc(N/N=C/c2ccccc2)nc1-c1ccc(C)cc1,.,3%,6%,14%,37%[activator],8%,.,1%
C=CCn1c(N)cc(=O)nc1SCC(=O)Nc1ccccc1C(N)=O,.,1%,6%,6%,-7%,8%,.,1%
CC(C)(C)NC(=O)/C=N/O,-0.2%,-21%,?,-2%,-2%,-2%,-5%,.
CCOC(=O)c1c(NC(=O)C2CCCN(S(=O)(=O)c3ccc(C)cc3)C2)sc2c1CCCC2 (stereo not drawn),0.3%,-1%,?,4%,-14%,-4%,16µM*,4%
Cc1ccccc1NC(=O)CCC(=O)OCCCC(F)(F)C(F)(F)F,-3.3%,4%,3%,-2%,8%,3%,16%,22%
CC1CCN(CC(=O)NNC(=O)c2cccc(Br)c2)CC1,.,-3%,2%[46.1 µM],7%[46.1 µM],7%,-2%,.,-3%
CCC1CCC/C1=N\NC(=O)c1ccoc1C (stereo not drawn),.,-2%,.,.,45%[activator],5%,.,-4%
O=C1COc2ccc(C(=O)COC(=O)COc3ccccc3[N+](=O)[O-])cc2N1,.,-1%,1%,1%,1%,-3%,.,4%
CC1(C)CC(=O)C(C=NCCN2CCNC2=O)=C(O)C1,-0.9%,18%,14%,-3%,-17%,-3%,4%,3%
COc1c(NC(C)=O)c2ccccc2c2ccccc12,1.3%,-1%,?,4%,-11%,-8%&1%,-3%,-2%
Cn1c(=NC(=O)C2CCN(S(=O)(=O)c3cccs3)CC2)sc2ccccc21,-0.6%,1%,10%[46.1 µM],-15%[46.1 µM],?,5%,-2%,4%&20%
COc1ccc(S(=O)(=O)N2CCN(Cc3nc4ccc(C)cc4o3)CC2)cc1OC,-0.8%,.,.,-2%[46.1 µM],-23%,.,?,.
CC1CCCCN1N=Nc1nc2c([nH]1)c(=O)n(C)c(=O)n2C (stereo not drawn),.,.,-3%[46.1 µM],-11%[46.1 µM],-8%,.,.,-18%
OC(c1ccc(Cl)cc1Cl)C(Cc1cccnc1)n1cncn1 (stereo not drawn),1.6%,-10%,10%,14%,2%,2%,12%,-3%
CCOC(=O)c1ccc(COC(=O)CCc2nc(-c3ccccc3)c(-c3ccccc3)o2)cc1,-29%,-6%,-21%,2%,10%,7%,?,-8%
O=C(Nc1cccnc1Cl)c1ccc(Cl)c([N+](=O)[O-])c1,-2.4%,-25%,-2%,0%,19%,6%,-9%,-15%
CCC(=O)Oc1ccc(-c2nc3ccccc3c(=O)o2)cc1,-1.6%,.,?,27%[46.1 µM],0%,.,2%,.
Cc1cc(C(F)(F)F)nn1-c1nc(-c2ccccc2)cc(C(F)(F)F)n1,-12%,.,7%[46.1 µM],2%[46.1 µM],-29%,.,-2%,.
CN(C)C(CNC(=O)c1oc2ccccc2c1CSc1ncn[nH]1)c1ccco1 (stereo not drawn),.,0%,?,6%,1%,.,.,-3%
CCOc1ccc(CNC(=O)Cn2nc(C)n3cccc3c2=O)cc1,-1.5%,.,26%[46.1 µM],1%[46.1 µM],-9%,.,-1%,.
COc1ccc(/C=C2\CCc3ccccc3C2=O)c(OC)c1OC,.,-6%,-20%[46.1 µM],?,-11%,-33%,.,-1%
O=C1c2ccc3c4c(ccc(c24)C(=O)N1c1cccc(O)c1)C(=O)N(c1cccc(O)c1)C3=O,.,2%,-1%,.,?,4%,.,14%
CCc1ccc(NC(=O)c2cccc(N3CCCS3(=O)=O)c2)cc1,-2.2%,.,.,-5%[46.1 µM],7%,.,3%,.
CC1CN(C(=O)CCNC(=O)c2ccc(Br)cc2)CC(C)O1 (stereo not drawn),.,6%,5%[46.1 µM],0%,-11%,.,.,16%

# Results in MARV entry inh, StopGo reporter and SARS PLP yeast, for 4 of the compounds above:
Structure	MARV entry inh	StopGo reporter	SARS PLP yeast
O=C(NCc1ccccn1)c1cccc(S(=O)(=O)Nc2ccc(F)cc2)c1	-11%	41%[activator]	0%
O=C(Cn1cnc2c(nnn2Cc2ccc(F)cc2)c1=O)NC1CCCC1	0%	16%	6%
Cc1cc(N/N=C/c2cccc(Cl)c2)nc(-n2nc(C)cc2C)n1	?	-9%	1%
Cc1cc(NC(=O)COC(=O)c2cccc(OCc3ccccc3)c2)no1	3%	27%	-1%

# The listing picks up; the 2 compounds before the break are reprinted first.
SMILES,Cruzain inh Det,SARS PLP yeast,MARV entry inh,LASV entry inh,StopGo reporter,NS1 inh,Cruzain noTriton,RE007 growth inh
CCc1ccc(NC(=O)c2cccc(N3CCCS3(=O)=O)c2)cc1,-2.2%,.,.,-5%[46.1 µM],7%,.,3%,.
CC1CN(C(=O)CCNC(=O)c2ccc(Br)cc2)CC(C)O1 (stereo not drawn),.,6%,5%[46.1 µM],0%,-11%,.,.,16%
Cc1ccc(NC(=S)N(CCN2CCOCC2)Cc2ccccc2F)cc1,.,1%,2%,-17%,6%,.,.,-14%
CCOc1ccc(CCNC(=O)Cn2ncn3nc(-c4ccc(OC)cc4)cc3c2=O)cc1,.,-3%,.,.,8%,5%,.,1%
Cc1csc2nc(-c3cccc(NC(=O)c4cccc(F)c4)c3)cn12,-5.7%,.,.,-12%[46.1 µM],-21%,.,?,.
COC(=O)[C@@H]1C[C@@]2(O)[C@@H](O)[C@@H](O)[C@@H](O)C[C@H]2N1Cc1ccc(Cl)cc1,1.3%,6%,.,.,6%,-2%,-11%,2%
O=C(O)c1cc(-c2ccc3c(c2)OCO3)nc2ccc(Cl)cc12,.,0%,?,-10%,1%,-23%,.,12%
O=C(O)Cc1ccc(NC(=O)Nc2cccc(Cl)c2)cc1,.,0%,2%[46.1 µM],21%[46.1 µM],1%,4%,.,-19%
